Screens from PubChem.
Mtb H37Rv: M. tuberculosis H37Rv growth inhibitors, H37Rv strain (AID 1626); one-dose inhibition, % at 10 µM; IC50 in µM for titrated hits; actives 0.95% (n = 220,000); M. tuberculosis H37Rv growth inhibition; higher % means a stronger effect;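 active = confirmed in a dose series; inconclusive = inhibition above 80% but not taken into the dose series; inactive = below 80% or under 30% at every dose of the series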;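 also: bacteria incubated seven days before Alamar blue readout; 0% = bacteria only wells and 100% = bacteria with antibiotic wells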
Arbovirus anti: blocks arbovirus infection | actives 0.37% (n = 200,000) | arbovirus infection cell-based antiviral screen | AID 1251 | inhibition, % at 10 µM;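 active = inhibition from about 30%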;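 also: bluetongue infection of BSR cells; cell survival read as ATP light after 72 h; 0% = infected wells without compound and 100% = uninfected wells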
RecA splice inh: blocks M. tuberculosis RecA intein splicing; P9WHJ3; cell-free RecA intein splicing, fluorescence; inhibition, %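 (about 9 µM by stock and volumes)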; actives 0.75% (n = 290,000); in the data active = inhibition above about 30%; inconclusive = no clear call, values can overlap the other calls;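 also: 0% = vehicle wells and 100% = reference inhibitor control wells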
Target sequence (P9WHJ3 whole entry, looked up, canonical isoform): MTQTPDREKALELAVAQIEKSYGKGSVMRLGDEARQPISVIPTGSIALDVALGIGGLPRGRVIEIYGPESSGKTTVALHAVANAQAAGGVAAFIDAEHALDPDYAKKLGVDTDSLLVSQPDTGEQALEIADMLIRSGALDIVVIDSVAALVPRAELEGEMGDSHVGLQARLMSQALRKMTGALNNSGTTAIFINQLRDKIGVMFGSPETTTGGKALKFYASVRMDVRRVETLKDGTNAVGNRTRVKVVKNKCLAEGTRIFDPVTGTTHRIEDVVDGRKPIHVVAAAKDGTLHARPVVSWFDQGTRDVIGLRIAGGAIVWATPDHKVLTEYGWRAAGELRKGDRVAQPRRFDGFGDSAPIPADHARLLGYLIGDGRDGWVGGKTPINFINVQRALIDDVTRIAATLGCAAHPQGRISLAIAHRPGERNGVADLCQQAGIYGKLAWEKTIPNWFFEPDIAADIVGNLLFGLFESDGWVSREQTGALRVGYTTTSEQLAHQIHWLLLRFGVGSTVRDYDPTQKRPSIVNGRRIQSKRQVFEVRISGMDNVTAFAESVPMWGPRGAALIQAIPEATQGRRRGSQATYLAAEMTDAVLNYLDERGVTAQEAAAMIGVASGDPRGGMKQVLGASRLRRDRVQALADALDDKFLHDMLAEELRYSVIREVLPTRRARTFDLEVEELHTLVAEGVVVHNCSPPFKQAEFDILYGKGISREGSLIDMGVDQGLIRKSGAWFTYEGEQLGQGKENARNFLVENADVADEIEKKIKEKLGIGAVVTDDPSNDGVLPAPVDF
Mtb bLac sens: beta-lactam sensitization of Mtb H37Rv | AID 434955 | inhibition, % at 25 µM | actives 0.27% (n = 330,000) | M. tuberculosis H37Rv growth with meropenem, percent inhibition; hits of this screen are not shown here;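 active = about 74% or more and at least 40 points above the plate without the antibiotic, then above 30% in a dose series; inconclusive = first-round hits that could not be retested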;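 also: growth measured after seven days incubation then overnight dye step; 0% = bacteria only wells and 100% = bacteria with antibiotic; twin plates without the antibiotic show which effects depend on it; some results filed as inactive read as strong as hits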
YopH inh: YopH (Yersinia) phosphatase inhibition | actives 0.16% (n = 140,000) | inhibition, %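 (about 10 µM by stock and volumes)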 | fluorescence Ex485/Em525;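 active = inhibition of 50% or more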;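 also: controls were vehicle for no effect and minimum signal wells for full effect; inactives centre near -20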
* hit, by the source's call; u = inconclusive; x = not tested or not shown. This is a subset, so the mix of outcomes need not match the whole.

Sequence of screens – Mtb H37Rv	Arbovirus anti	RecA splice inh	Mtb bLac sens	YopH inh
CC(C)c1ccc(N2C(=O)NC(=O)/C(=C/c3cnc(-c4ccccc4)nc3)C2=O)cc1
    -7%	-9	4.2	2	-13
Cc1cc(/C=N/n2cnnc2)c(C)n1-c1ccccc1
    4%	-4	-4.3	43	-13
c1ccc(CSc2ccc(-c3ccccn3)nn2)cc1
    x	-31	0.9	100	x
CC(=O)NC1(c2cccc(F)c2)CCN(CC(=O)NC(C)C)CC1
    0%	2	-1.9	0	-10
Cn1nccc1C(=O)Nc1sc2c(c1C#N)CCCC2
    x	x	-0.6	-5	x
Cc1ccc2c(c1)NC(=O)C(CC(=O)N(C)Cc1ccccc1)O2 (stereo not given)
    -3%	1	1.2	1	-3
c1ccc(OCCN2C3=NCCN3c3ccccc32)cc1
    3%	1	-5.1	-15	-45
CC1CCN(CCCCOc2cccc(C(C)C)c2)CC1
    x	x	0.7	7	x
CC(C)Cc1cc(C(=O)N2CCCC(CCC(=O)N(C)CCc3ccccn3)C2)no1 (stereo not given)
    -5%	7	1.7	-4	x
COc1ccc(C(=O)Cc2nnc(C)s2)cc1
    2%	2	0.5	7	-13
O=C(Nc1ccccc1)NC1CCN(Cc2c(F)cccc2Cl)CC1
    -12%	x	0.6	-3	x
O=C(CN1CCN(Cc2ccc(Cl)cc2)CC1)N/N=C/C=C/c1ccccc1[N+](=O)[O-]
    8%	-10	-0.1	83	-10
CC1(C)NS(=O)(=O)Oc2ccccc21
    x	x	1.1	-2	x
Cc1ccc(S(=O)(=O)N2CCN(C(=O)c3ccc(OCc4c(C)noc4C)cc3)CC2)cc1
    -2%	7	2.2	-5	-47
O=C(Nc1ccc2ccccc2c1)c1ccccc1F
    x	x	2.2	-7	x
COC(=O)c1c(Sc2ccccc2)c2ccccc2n1C
    x	x	0.3	4	x
CCn1c(SCC(=O)Nc2c(C)n(C)n(-c3ccccc3)c2=O)nc2c1c(=O)n(C)c(=O)n2C
    1%	11	0.7	2	x
Cc1ccc(C(=O)NCCNC(=O)c2ccc(C)nc2)cc1
    x	x	0.9	-5	x
CCc1ccc(C(C(=O)NCc2ccc(OC)cc2)N(CCOC)C(=O)Cc2cccs2)cc1 (stereo not given)
    14%	-14	3.7	2	-24
O=C(CCN1C(=O)c2ccccc2C1=O)Nc1cccc(S(=O)(=O)NC2=NCCC2)c1
    2%	7	-0.3	-13	x

Quoted at random: four records from the list.
Sequence of screens – Mtb H37Rv	Arbovirus anti	RecA splice inh	Mtb bLac sens	YopH inh
COc1ccc(C(=O)Cc2nnc(C)s2)cc1
    2%	2	0.5	7	-13
c1ccc(CSc2ccc(-c3ccccn3)nn2)cc1
    x	-31	0.9	100	x
O=C(Nc1ccc2ccccc2c1)c1ccccc1F
    x	x	2.2	-7	x
c1ccc(OCCN2C3=NCCN3c3ccccc32)cc1
    3%	1	-5.1	-15	-45

Additional records follow:
Sequence of screens – Mtb H37Rv	Arbovirus anti	RecA splice inh	Mtb bLac sens	YopH inh
CC(C)(C)C(=O)N1CCn2c1nc1ccccc12
    1%	2	0.4	-8	x
COc1ccc(OCC(=O)O/N=C(\N)Cc2ccc(Cl)cc2Cl)cc1
    14%	4	15	1	-12
CC(=O)c1sc(NC(=O)c2ccc(COc3ccccc3Cl)o2)nc1C
    x	x	1.0	-14	x
Cn1cc(Cl)c(C(=O)OCC(=O)Nc2nc(-c3ccc(Br)cc3)cs2)n1
    11%	-13	x	74	16
COc1cc(/C=C/C(=O)OCC(=O)NC2CCS(=O)(=O)C2)ccc1O (stereo not given)
    -1%	-5	-3.5	-4	-16
c1ccc2c(c1)OCC(c1csc3ncnc(N4CCCC4)c13)O2 (stereo not given)
    10%	5	14	20	-1
CCOc1ccc(CC(=O)NNC(=O)/C=C/C(=O)O)cc1
    -7%	x	-0.9	-5	x
O=c1[nH]c(=O)n(C2CCCO2)cc1F (stereo not given)
    20%	3	1.2	80	-29
COc1ccc(NC(=O)N2CCCC2C(=O)Nc2ccc(C)c(Cl)c2)cc1 (stereo not given)
    77%	4	x	58	8
Cc1cc(NC(=O)Nc2cccc(C(F)(F)F)c2)n(C)n1
    6%	-5	0.9	6	x
COCCNC(=O)C(c1ccc(OC)cc1)N(Cc1ccco1)C(=O)CCC(=O)Nc1ccccn1 (stereo not given)
    x	x	-0.2	0	x
CCOC(=O)CN1CCC(c2ccccc2)CC1
    -2%	3	1.4	-9	x
C=CCn1c(SCC(=O)Nc2ccc(F)cc2F)nnc1-c1cnccn1
    x	x	-3.0	1	x
COc1ccc(C(=O)NN=C2CCCC2)cc1OC
    x	x	0.9	-1	x
COc1cccc(CN2CCC(N(CCc3ccccc3)Cc3ccccc3)CC2)c1OC
    66%	-32	9.5	91	-20
Cc1cc(C)nc(N2CCC(C(=O)Nc3ccc4c(c3)CCC4)CC2)n1
    -3%	-8	-1.0	6	-28
Fc1ccc(CNc2ccccn2)cc1
    x	x	-1.7	-8	x
Cc1ccc(NS(=O)(=O)c2ccc(-c3cnc(C4CC4)o3)cc2)c(C)c1
    x	x	14	-2	x
COc1cccc(NC(=O)c2ccc(N3C(=O)C4CC=CCC4C3=O)cc2)c1 (stereo not given)
    x	x	2.2	-7	x
O=C(NCCN1CCOCC1)c1cc2ccccc2o1
    -7%	12	-3.6	0	9

(more compounds)
Sequence of screens – Mtb H37Rv	Arbovirus anti	RecA splice inh	Mtb bLac sens	YopH inh
O=C(NCc1ccccc1)c1cccnc1N1CCOCC1
    -3%	3	-6.1	-16	-18
O=C(N/N=C/c1cccc2nccnc12)c1ccccc1O
    73%	x	0.6	100	x
Cc1ccc(NC(=O)CNC(=O)Cn2cnc3sc(C)c(C)c3c2=O)cc1F
    x	x	-23	-4	x
CCCCN1C(=O)C(NC(=O)CC(C)C)(C(F)(F)F)C2=C1CC(C)(C)CC2=O (stereo not given)
    -5%	1	0.4	-10	-28
O=C(CN1CCSC1=NCc1ccccc1)c1ccccc1
    0%	-8	-0.3	1	-25
CCOC(=O)Cc1c(C)nc2c(-c3ccc(Cl)cc3)cnn2c1C
    -4%	-5	-5.3	5	x
CC(/C=N/n1cnnc1)=C\c1ccccc1
    -3%	2	-0.1	3	-8
Cc1cnc([N+](=O)[O-])n1CCOC(=O)NC(=O)c1c(F)cccc1F
    -7%	-1	-0.3	0	x
COc1ccccc1NC(=O)CSc1nnc2ccc(-c3ccccn3)nn12
    x	x	0.4	-4	x
CCCn1c(C2CCCN2c2nc(-c3cccc(Br)c3)cs2)nc2ccccc21 (stereo not given)
    x	x	10	3	x
CCCN1C(=O)/C(=C/c2ccc(N3CCOCC3)cc2)NC1=S
    0%	-7	-19	40	x
CSc1nccc(-c2sc(SC)c(C#N)c2-c2ccccc2)n1
    14%	x	-1.8	-5	x
COc1ccccc1-n1c(SCC(=O)N2CCOCC2)nc2cccnc21
    6%	8	0.4	2	x
Cc1cc(OCC(=O)NCCCN2CCOCC2)cc(C)c1Cl
    -6%	x	-2.8	17	-33
C[C@@H](C(=O)Nc1ccc2ccccc2c1)[C@@H]1C[C@@]1(C)[C@@H](NC(=O)OCc1ccccc1)c1ccccc1
    x	x	2.9	-3	x
S=C1NCCOCCOCCNC(=S)N2CCOCCOCCN1CCOCCOCC2
    3%	4	0.4	3	x
COC(=O)c1ccc(NC(=S)Nc2ccc(O)cc2)cc1
    u	-3	-2.4	-5	x
COc1ccc(OCC(=O)Nc2ccc3c(c2)nc(CCN2CCN(C)CC2)n3C)cc1
    x	x	1.2	23	x
O=C(c1cc(S(=O)(=O)N2CCC3(CC2)OCCO3)ccc1F)N1CCCCC1
    -1%	8	0.9	0	x
Cc1ccc(-c2n[nH]c(Cc3ccccc3)n2)cc1
    x	x	4.7	9	x

Remaining list, next part
Sequence of screens – Mtb H37Rv	Arbovirus anti	RecA splice inh	Mtb bLac sens	YopH inh
CC(=O)Nc1c(O)nc(SC/C=C/CSc2nc(O)c(NC(C)=O)c(=O)[nH]2)[nH]c1=O
    1%	5	-0.3	-2	x
COc1ccccc1C(=O)Oc1cc(C)[nH]c(=O)c1[N+](=O)[O-]
    -1%	0	-2.9	1	x
O=S(=O)(c1ccc2ccccc2c1)N1C=CC(C(F)(F)F)=NCC1
    -2%	6	-0.1	-8	-1
COc1ccc(C2(C#N)CC[N+](C)(C)CC2)cc1
    x	5	-0.7	-3	-33
O=C1/C(=C/c2ccc(F)cc2)SC(=S)N1NS(=O)(=O)c1ccccc1
    x	x	3.4	-2	x
COc1ccccc1CCNC(=O)CNC(=O)Cc1cccc2ccccc12
    x	x	1.5	0	x
CN(C)c1ccc(/C=N/NC(=O)c2ccccc2Cl)cc1
    5%	-20	1.9	-4	-25
COc1ccc(N(CC(=O)Nc2ccc3c(c2)OCCO3)S(C)(=O)=O)c(OC)c1
    -8%	-3	-1.6	1	-22
CCCn1c(Sc2nc3c(c(=O)[nH]c(=O)n3C)n2CCC)nc2c1c(=O)[nH]c(=O)n2C
    3%	2	-2.6	-6	-9
O=C1CC2(CCCCCC2)Oc2ccccc21
    0%	x	-4.8	9	x
O=C(O)CC1(CC(=O)NCc2ccc(F)cc2)CCCCC1
    x	x	0.3	-8	x
Cc1cc2cc(CNC(=S)NC3CCCCC3)ccc2[nH]1
    1%	11	3.6	5	x
CC(C)C(=O)Nc1cccc(-c2nc3ccccc3o2)c1
    -3%	-3	2.3	-1	9
Cn1c(=O)c2[nH]c(-c3ccccc3)c(O)c2n(C)c1=O
    -6%	-10	-13	3	-23
CCN(CC)CCNC(=S)Nc1ccc2nc(N3CCCC3)cc(C)c2c1
    -2%	-22	-3.3	8	x
CCNc1nc(OC)nc(SCC(=O)Nc2ccccc2)n1
    7%	-10	2.7	-4	x
Cc1cc(N2CCC(C(=O)NC3CC3)CC2)nc(-c2ccccc2)n1
    -3%	-4	x	-7	-14
Cc1ccc(-c2cc(C(=O)NCc3cn(C)nc3C)c3cc(Br)ccc3n2)cc1
    7%	-1	6.6	-1	-27
CC(=O)C1=C(O)C(=O)N(c2ccc(O)cc2)C1c1ccc(Cl)cc1 (stereo not given)
    x	x	-1.0	-4	x
Fc1cnc(N2CCN(c3ccccc3)CC2)nc1N1CCN(c2ccccc2)CC1
    -1%	1	-1.4	4	-19

The listing continues:
Sequence of screens – Mtb H37Rv	Arbovirus anti	RecA splice inh	Mtb bLac sens	YopH inh
O=C(Nc1ccc(F)cc1F)c1noc2c1CCC2
    -7%	0	-5.5	1	-14
COc1ccc(C(=O)NC(=S)N2CCC(C)CC2)cc1
    0%	6	-1.2	71	-17
CCOc1ccc(C(=O)Nc2nnc(C(C)C)s2)cc1OCC
    4%	5	0.2	7	-24
CCCS(=O)(=O)N1CCC(C(=O)NCCc2ccc(OC)c(OC)c2)CC1
    -2%	5	1.5	-13	-33
CCC(C(=O)NCCCN1CCCCCC1)n1nc(C)c2sc3ccccc3c2c1=O (stereo not given)
    x	x	2.6	-3	x
O=C1CSC(c2cccnc2)N1Cc1cccnc1 (stereo not given)
    -13%	x	5.8	-2	x
CCOC(=O)C1CCN(C(=O)CCc2ccccc2)CC1
    -12%	3	1.8	-6	9
CCOc1ccc(S(=O)(=O)NCc2cccnc2)cc1C(C)C
    x	x	0.0	7	x
Cc1cccc(N(C(=O)c2sc(C)nc2C)C(C(=O)NCc2ccco2)c2ccccc2)c1 (stereo not given)
    -11%	6	-0.9	7	-19
O=c1[nH]c(Cc2ccccn2)nc2scc(-c3ccc(Cl)cc3)c12
    7%	-12	4.9	75	x
CCOC(=O)c1sc2ccc(S(=O)(=O)N3CCCCC3)cc2c1N
    2%	5	-0.6	-2	-24
CC(=O)Nc1ccc(NC(=O)Cc2sc(-c3cccnc3)nc2-c2ccc(C)cc2)cc1
    -2%	-3	-4.3	7	x
Cc1cc(C(=O)CCC(=O)Nc2ncccc2C)c(C)s1
    x	x	4.1	1	x
CCCCCC(=O)Nc1ccc(N2CCN(CC)CC2)c(Cl)c1
    0%	-19	6.2	-9	-16
O=C(COC(=O)c1ccc(O)cc1)NCC1CCCO1 (stereo not given)
    -6%	-1	-0.6	0	x
O=C(Cc1ccccc1)NCC(=O)Nc1ccc(OC(F)(F)F)cc1
    x	x	-1.1	-5	x
COc1ccccc1CNS(=O)(=O)CCNC(=O)c1ccccc1
    x	x	-1.7	-9	x
O=C(NCCc1ccccc1)C1CC(=O)N(C2CCCCC2)C1 (stereo not given)
    x	x	-0.3	-7	x
CCn1nnc(-c2ccccc2NC(=O)c2cnccn2)n1
    0%	x	-1.3	8	-23
O=C(O)CCN1CCN(S(=O)(=O)c2ccc3ccccc3c2)CC1
    x	x	-2.2	-2	x
O=C(Cn1sc2ccccc2c1=O)NC12CC3CC(CC(C3)C1)C2
    8%	-39	11	52	-30
O=C(c1cccc(-n2cnnn2)c1)N1CCOCC1
    -1%	4	1.6	0	-34
CCn1c(/C=N/NC(=O)c2ccc(OC)cc2)nc2ccccc21
    u	-25	0.5	99	-24
